Screening results from PubChem.
Calb FLC – affects C. albicans growth with fluconazole; 300,000 tested, 0.57% active; growth inhibition, % (no concentration beside the values); AID 1979; C. albicans CaCi-2 (fluconazole-resistant clinical isolate) + fluconazole, Alamar Blue growth, 48 h;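 active means most replicates above 75%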;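 further: all wells also contain fluconazole at 8 µg/ml as a sub-toxic cotreatment; 0% = median of DMSO wells and 100% = median of geldanamycin control wells; wells of about 8 µL received 7.5 nL stock; the first replicate is given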
Bfl-1 A1 inh – inhibitors of the anti-apoptotic protein A1, read as caspase activation; caspase activation, % (test concentration not listed); AID 2462; 330,000 tested, 0.066% active; MEF A1-2A-BIM cells, Caspase-Glo 3/7 luminescence, 3 h; percent of clofoctol response, vehicle zero;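 active means over half of replicate activation scores above 10%, or exactly half above 10 with the replicate mean above 10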;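 further: wells of about 30 µL received 50 nL stock; many hits fall short of the cut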
T cruzi inh – T. cruzi replication inhibition | T. cruzi beta-gal in NIH3T3, luminescence, 90 h | inhibition, % (test concentration not listed) | 300,000 tested, 1.4% active;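 active means mean inhibition across valid replicates above about 55%, limit read from the data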;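 further: signal also drops with host cell toxicity which is not excluded here; 0% = plate median of DMSO wells and 100% = zero luminescence signal; higher percent means less beta-gal luminescence so fewer parasites; stock transfer was 50 nL into about 50 µL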
Beta2AR agonist – agonists of human beta-2 adrenergic receptor inducing internalization. AID 504454. 340,000 tested, 0.43% active. response, % (concentration not given with the values). Am2.2-beta2AR cells, FAP receptor internalization, flow cytometry; reference of the scale not given here;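 active means response above a set limit, near 3 SD of response in nonfluorescent compounds, cut at about 42% in these data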;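 further: stock transfer was 100 nL into about 11 µL; a reference agonist was the positive control; negative values mostly stem from fluorescent compounds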
Beta apoptosis – blocks beta cell apoptosis. INS-1E cytokine-induced death, ATP luminescence, 48 h; percent of positive-control rescue, neutral wells zero. protection from apoptosis, % (concentration not given with the values). 300,000 tested, 0.8% active. AID 435005;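 active means all replicates at 75% or more, or half of them and the mean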;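 further: 0% = cytokine-treated negative control wells and 100% = positive control rescue; higher means more ATP so stronger rescue from cytokine killing; wells of about 40 µL received 100 nL stock; the first replicate is given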
ALR inh – blocks human ALR sulfhydryl oxidase activity; purified ALR, DTT oxidation, H2O2 HRP-luminol luminescence; AID 485317; inhibition, % (test concentration not listed); P55789; 290,000 tested, 3.8% active;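 active means mean and each replicate at 75% or more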;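 further: stock transfer was 7.5 nL into about 7.5 µL; 0% = neutral wells and 100% = wells with inactivated enzyme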
LANA-H2B inh – blocks KSHV LANA binding to histone H2A/H2B. inhibition, % (concentration not given with the values). cell-free LANA-H2A/H2B peptide, fluorescence polarization. Q9QR71. 320,000 tested, 0.6% active. AID 2629; in the data active means inhibition mostly above about 10%, no sharp cut-off; inactive means mostly below about 6.7%;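 further: stock transfer was 7.5 nL into about 10 µL; 0% = median of vehicle wells and 100% = median of positive control wells; one replicate is shown; the record names a cut of 25% in any replicate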
Target sequence (Q9QR71 whole entry, looked up): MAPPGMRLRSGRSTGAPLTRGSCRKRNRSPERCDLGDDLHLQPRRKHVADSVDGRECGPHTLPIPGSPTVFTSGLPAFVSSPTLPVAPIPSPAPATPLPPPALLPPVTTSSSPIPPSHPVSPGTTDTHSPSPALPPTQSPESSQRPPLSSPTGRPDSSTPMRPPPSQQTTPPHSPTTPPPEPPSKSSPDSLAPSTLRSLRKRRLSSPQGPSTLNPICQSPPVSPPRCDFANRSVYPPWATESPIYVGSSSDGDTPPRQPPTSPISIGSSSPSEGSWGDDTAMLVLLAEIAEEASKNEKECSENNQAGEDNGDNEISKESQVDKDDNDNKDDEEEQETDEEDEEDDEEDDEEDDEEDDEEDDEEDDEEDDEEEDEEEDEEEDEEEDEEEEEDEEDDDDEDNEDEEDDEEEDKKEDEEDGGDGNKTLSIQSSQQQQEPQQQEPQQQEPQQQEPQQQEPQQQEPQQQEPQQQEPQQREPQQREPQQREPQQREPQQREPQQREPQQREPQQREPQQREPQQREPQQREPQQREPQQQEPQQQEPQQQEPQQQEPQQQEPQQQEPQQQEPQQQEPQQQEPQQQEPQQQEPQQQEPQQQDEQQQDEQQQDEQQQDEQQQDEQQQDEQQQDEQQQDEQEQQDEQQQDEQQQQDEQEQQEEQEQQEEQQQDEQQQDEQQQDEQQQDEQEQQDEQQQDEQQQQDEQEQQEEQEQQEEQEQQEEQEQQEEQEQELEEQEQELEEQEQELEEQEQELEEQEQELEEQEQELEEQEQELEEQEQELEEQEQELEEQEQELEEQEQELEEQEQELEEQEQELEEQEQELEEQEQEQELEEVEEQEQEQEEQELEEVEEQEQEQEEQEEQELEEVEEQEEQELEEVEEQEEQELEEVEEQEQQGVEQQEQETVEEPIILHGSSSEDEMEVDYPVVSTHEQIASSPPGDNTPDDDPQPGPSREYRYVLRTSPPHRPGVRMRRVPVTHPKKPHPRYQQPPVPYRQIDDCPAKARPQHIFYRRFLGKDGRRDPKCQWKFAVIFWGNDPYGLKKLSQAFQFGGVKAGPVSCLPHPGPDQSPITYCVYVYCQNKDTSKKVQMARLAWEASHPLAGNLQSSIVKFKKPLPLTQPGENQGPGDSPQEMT
rRNA inh HTS – inhibits bacterial ribosomal RNA function over humanized ribosomes; E. coli WT GFP vs humanized-ribosome RFP mutants, fluorescence, 24 h; stronger effect = lower value; DMSO median 0, no signal -100; GFP signal change (wild-type ribosome), % (no concentration beside the values); 350,000 tested, 1.6% active; AID 720706;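 active means significant combined selectivity score with lowered wild-type GFP, culture density cut under 30%, mutant RFP and density less affected; inactive means any of these conditions unmet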; further: one replicate is shown; some compounds called inactive have numbers as strong as hits
rRNA inh HTS OD600 – second read-out of rRNA inh HTS, no call of its own (marks repeat the call); OD600 change, %; measured here: OD600 growth;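 optical density of the mix in the first replicate; 0 = DMSO median and -100 = no signal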
rRNA inh HTS RFP – further read-out of rRNA inh HTS, marked with its call; RFP signal change, %; measured here: RFP humanized mutant strains;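 first replicate; 0 = DMSO median and -100 = no signal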
An asterisk follows results filed as active; . = not tested or not shown. A portion of the library; count on the stated rates, not on these rows.

SMILES	Calb FLC	Bfl-1 A1 inh	T cruzi inh	Beta2AR agonist	Beta apoptosis	ALR inh	LANA-H2B inh	rRNA inh HTS	rRNA inh HTS OD600	rRNA inh HTS RFP
CCOc1ccc(OCC)c(NC(=O)CSc2nnc(Cn3cnc4ccccc43)n2C)c1	.	-0.4	.	-4.9	3.6	-3.8	-7.4	.	.	.
O=C(NCc1ccco1)c1ccccc1-c1nc(-c2ccccc2)no1	-10.9	0.1	-0.6	3.2	3.3	0.4	-2.9	-12.8	-8.7	5.1
CSCCC(NC(=O)c1ccc([N+](=O)[O-])cc1Cl)C(=O)OCC(=O)NC1CCCC(C)C1C (centres undefined)	-0.7	-1.6	-7.9	-6.8	-0.7	-28.6	-2.6	8.0	0.2	-1.6
COc1ccc(NS(=O)(=O)c2cc(NC(=O)Cc3c(F)cccc3Cl)ccc2OC)cc1	.	-0.7	.	1.5	7.8	-22.5	2.7	3.5	15.2	-0.2
COc1ccc(N(CC(=O)Nc2cccc(C)c2)S(=O)(=O)c2ccc(C)cc2)cc1OC	-9.1	0.0	-8.2	-5.5	-2.4	-9.9	2.9	16.6	6.9	3.8
Cc1ccccc1CN1C(=O)/C(=C\c2ccc(C(=O)NCCN3CCOCC3)cc2)Sc2ccccc21	-5.4	0.5	3.5	9.0	-4.1	-21.0	9.6	-17.0	-36.8	12.2
CC(C)OP(=O)(OC(C)C)C(Nc1ccccc1)c1cccnc1 (centres undefined)	5.7	0.1	4.4	-1.5	0.0	-11.6	2.8	-2.3	0.3	-1.4
O=C(C1=C(O)C(=O)N(CC2CCCO2)C1c1cccc(O)c1)c1ccco1 (centres undefined)	5.2	0.3	-18.2	-9.2	1.1	-2.0	3.6	9.0	11.8	-1.8
CCCCN(C)C(=O)c1nc2ccccn2c1CN1CCC[C@H]1C(=O)OC	2.5	1.3	-2.4	4.4	.	-5.7	-0.3	18.0	6.4	1.9
Cc1ccc2nccc(C(=O)N3CCCC(N4CCN(c5ccc(F)cc5)CC4)C3)c2c1 (centres undefined)	5.7	-0.2	11.1	1.8	-4.2	71.3	3.5	2.0	7.7	2.3
O=S1(=O)CCOC[C@H](CC2CCCCC2)N1Cc1cccc(F)c1	-12.1	1.0	15.0	4.0	-4.4	-10.6	0.6	3.2	15.9	0.9
Cc1ccc2oc(C(=O)NC3CCS(=O)(=O)C3)c(C)c2c1 (centres undefined)	3.3	.	3.2	-0.4	.	.	.	-2.5	-7.3	1.6
Nc1nc(SCC(=O)Nc2ccc(Cl)cc2C(F)(F)F)n[nH]1	4.2	-0.5	0.2	-2.2	-3.1	0.5	-3.9	-8.9	-6.7	-4.2
CC(=O)c1ccc(NC(=S)N2CCN(CCN3C(=O)c4cccc5cccc(c45)C3=O)CC2)cc1	-6.8	1.2	8.3	37.1	4.5	0.1	-3.4	6.1	4.4	0.6
O=C1OCCC1Sc1nc2ccccc2c(=O)n1Cc1ccc(F)cc1 (centres undefined)	0.2	-0.3	-5.9	-22.3	-8.1	-1.5	0.3	-23.7	-34.8	-18.0
Cc1cc(C)nc(-n2nc(C)cc2NC(=O)c2cccc(S(=O)(=O)N(C)C)c2)n1	4.0	-0.1	-3.7	.	4.1	-12.7	4.6	.	.	.
Cc1nc(Cl)c2c(n1)N(CC(N)=O)C(=O)CO2	5.2	1.5	-8.3	5.3	1.3	3.9	-11.4	15.7	10.9	-1.0
COC(=O)Cn1ncc2c3ccccc3n(C)c2c1=O	5.7	-0.6	-11.8	-5.0	-1.5	.	1.9	.	.	.
Cc1cc(Cl)c(OCCOCCN2CCC(C)CC2)c(Br)c1	-27.2	-1.1	36.3	4.9	10.6	-0.7	-1.3	.	.	.
COc1ccc(-c2noc(CCCC(=O)NC3CCCCC3)n2)cc1OC	1.6	-0.2	7.7	3.7	.	-11.1	0.4	3.6	8.2	-0.1
CCOC(=O)c1cnn2c(C)cc(-c3ccccc3)nc12	-6.2	2.3	-1.5	-9.2	-0.9	0.2	2.3	.	.	.
CCOC(=O)c1sc(NC(C)=O)c(C(=O)OCC)c1C	11.9	-2.6	11.5	0.7	-0.4	-2.9	-2.8	.	.	.
CC1CC(C)(C)CC2(C1)NC(=O)N(CC(=O)NCCc1c[nH]c3ccccc13)C2=O (centres undefined)	-16.9	0.1	-14.4	-1.8	.	-0.6	3.1	.	.	.
CN(CC1CCCO1)S(=O)(=O)c1ccc(C(=O)N2CCN(c3ccccc3)CC2)cc1 (centres undefined)	14.0	1.0	-6.7	-0.3	-6.7	13.4	4.6	6.5	1.8	0.0
Cc1ccccc1OCC(=O)OCC(=O)NCCc1ccccc1	.	0.7	.	-2.7	-2.4	-2.8	.	14.1	18.6	4.5
c1ccc(-c2ncnc3cc4n(c23)CCC4)cc1	-4.3	-0.6	-8.5	-0.4	-7.6	.	-1.8	.	.	.
CN(CCOc1ccc(Cl)cc1)C(=O)c1cc([N+](=O)[O-])ccc1N1CCOCC1	3.7	-0.1	9.6	5.5	6.9	1.1	1.3	-9.3	-17.8	1.8
C=CCNC(=S)NNC(=O)COc1cccc(Cl)c1	10.6	0.6	-8.5	7.7	3.2	6.3	-2.0	-17.5	-15.3	-6.3
COc1ccccc1NC(=O)/C(C#N)=C/c1cccnc1	-2.4	0.0	-6.0	3.0	-6.6	36.7	1.4	9.5	7.8	0.9
COc1ccc(C(=O)CCC(=O)NCCc2c[nH]c3ccccc23)cc1	-3.7	-0.4	2.3	-2.3	-2.5	7.0	-0.5	-8.9	-9.6	2.4
O=C1C=C(c2ccc(C(=O)O)cc2)C[C@@H](c2ccc(Cl)cc2)C1	.	-0.5	.	-3.8	-6.2	2.6	2.1	-37.5	-48.7	-2.1
Cc1oc(-c2ccccc2F)nc1CSCC(=O)NC1CC1	-14.0	-0.2	9.0	-1.8	-5.8	-28.6	1.0	0.7	10.0	-0.7
CCc1nc(-c2ccccc2)cc(=O)[nH]1	1.7	1.0	-2.7	6.2	-1.3	-7.7	-1.3	11.9	3.1	0.2
Cc1ccc(C(=O)NCc2nnc3c(C(F)(F)F)cc(Cl)cn23)o1	-2.4	1.3	5.5	-2.3	-1.8	-16.3	7.2	4.0	-7.6	-2.6
COc1ccc(C(=O)c2cnc[nH]2)cc1OC	3.1	0.7	-6.3	-8.7	-3.0	-4.1	-4.3	3.6	-2.2	-9.8
COc1ccccc1CC(=O)NNS(=O)(=O)c1ccccc1[N+](=O)[O-]	30.1	0.5	-9.1	5.5	0.4	-5.7	1.7	0.5	14.9	-5.2

Some of the entries so far, with values under each structure.
Below each SMILES: Calb FLC, Bfl-1 A1 inh, T cruzi inh, Beta2AR agonist, Beta apoptosis, ALR inh, LANA-H2B inh, rRNA inh HTS, rRNA inh HTS OD600, rRNA inh HTS RFP
> c1ccc(-c2ncnc3cc4n(c23)CCC4)cc1
  -4.3, -0.6, -8.5, -0.4, -7.6, ., -1.8, ., ., .
> CN(CCOc1ccc(Cl)cc1)C(=O)c1cc([N+](=O)[O-])ccc1N1CCOCC1
  3.7, -0.1, 9.6, 5.5, 6.9, 1.1, 1.3, -9.3, -17.8, 1.8
> C=CCNC(=S)NNC(=O)COc1cccc(Cl)c1
  10.6, 0.6, -8.5, 7.7, 3.2, 6.3, -2.0, -17.5, -15.3, -6.3
> COc1ccccc1NC(=O)/C(C#N)=C/c1cccnc1
  -2.4, 0.0, -6.0, 3.0, -6.6, 36.7, 1.4, 9.5, 7.8, 0.9
> COc1ccc(C(=O)CCC(=O)NCCc2c[nH]c3ccccc23)cc1
  -3.7, -0.4, 2.3, -2.3, -2.5, 7.0, -0.5, -8.9, -9.6, 2.4
> O=C1C=C(c2ccc(C(=O)O)cc2)C[C@@H](c2ccc(Cl)cc2)C1
  ., -0.5, ., -3.8, -6.2, 2.6, 2.1, -37.5, -48.7, -2.1
> Cc1oc(-c2ccccc2F)nc1CSCC(=O)NC1CC1
  -14.0, -0.2, 9.0, -1.8, -5.8, -28.6, 1.0, 0.7, 10.0, -0.7
> CCc1nc(-c2ccccc2)cc(=O)[nH]1
  1.7, 1.0, -2.7, 6.2, -1.3, -7.7, -1.3, 11.9, 3.1, 0.2
> Cc1ccc(C(=O)NCc2nnc3c(C(F)(F)F)cc(Cl)cn23)o1
  -2.4, 1.3, 5.5, -2.3, -1.8, -16.3, 7.2, 4.0, -7.6, -2.6
> COc1ccc(C(=O)c2cnc[nH]2)cc1OC
  3.1, 0.7, -6.3, -8.7, -3.0, -4.1, -4.3, 3.6, -2.2, -9.8
> COc1ccccc1CC(=O)NNS(=O)(=O)c1ccccc1[N+](=O)[O-]
  30.1, 0.5, -9.1, 5.5, 0.4, -5.7, 1.7, 0.5, 14.9, -5.2

Later entries:
SMILES	Calb FLC	Bfl-1 A1 inh	T cruzi inh	Beta2AR agonist	Beta apoptosis	ALR inh	LANA-H2B inh	rRNA inh HTS	rRNA inh HTS OD600	rRNA inh HTS RFP
Cn1c(SCC(=O)c2c(N)n(C)c(=O)n(C)c2=O)nnc1-c1ccccc1	-5.8	0.2	6.2	-8.3	-2.6	-1.0	0.7	.	.	.
CCOC(=O)CN1C(=O)S/C(=C/c2ccc(N3CCCCC3)o2)C1=O	-5.6	2.0	-2.4	-39.0	-1.0	17.3	-3.5	.	.	.
Cc1ccc(C(=O)Nc2ccc(Cc3ccncc3)cc2)cc1[N+](=O)[O-]	0.5	0.0	47.0	-7.0	2.0	28.1	2.6	.	.	.
CCOC(=O)N1CCC(NC(=O)c2cc(S(=O)(=O)N3CCc4ccccc43)cn2C)CC1	8.4	1.3	16.0	-1.4	-4.1	-2.9	-3.8	.	.	.
CC(=O)c1sc(NC(=O)c2ccc(C)cc2)nc1C	7.2	-7.2	-3.7	-5.0	5.6	-3.1	-3.0	.	.	.
Clc1ccc(Cn2nnc3ccccc32)cc1	-14.1	1.1	1.2	-10.6	0.3	9.9	-6.8	-10.7	-6.0	1.1
COc1ccc(C(=O)c2cnc3ccccc3c2-c2ccccc2)cc1	7.3	1.6	19.8	-1.0	-21.3	-7.9	-4.2	.	.	.
CC(C)CCNC(=O)C(C)N(Cc1ccc(F)cc1)C(=O)c1ccc(CN2CCOCC2)o1 (centres undefined)	1.5	-0.1	7.4	4.1	3.2	.	1.5	12.1	4.6	1.2
CC(C)n1c(O)c(N=Nc2ccc(Cl)nn2)c2ccccc21	3.4	0.3	10.5	-30.8	5.7	5.9	-1.1	.	.	.
Cc1ccc(N2NC3(CCN(C(N)=O)CC3)NC2=O)cc1	106.1*	-0.1	2.6	.	1.8	-52.6	3.8	16.4	-1.4	-1.0
Cc1ccc(S(=O)(=O)N2CCCCC2CCNC(=O)C(=O)NCc2ccccc2)cc1 (centres undefined)	9.4	1.5	19.0	-2.4	21.6	.	.	3.8	9.0	-0.6

Three compounds out of the list, sorted by molar mass, largest number first:
SMILES	Calb FLC	Bfl-1 A1 inh	T cruzi inh	Beta2AR agonist	Beta apoptosis	ALR inh	LANA-H2B inh	rRNA inh HTS	rRNA inh HTS OD600	rRNA inh HTS RFP
CC(C)CCNC(=O)C(C)N(Cc1ccc(F)cc1)C(=O)c1ccc(CN2CCOCC2)o1 (centres undefined)	1.5	-0.1	7.4	4.1	3.2	.	1.5	12.1	4.6	1.2
Cc1ccc(N2NC3(CCN(C(N)=O)CC3)NC2=O)cc1	106.1*	-0.1	2.6	.	1.8	-52.6	3.8	16.4	-1.4	-1.0
CC(=O)c1sc(NC(=O)c2ccc(C)cc2)nc1C	7.2	-7.2	-3.7	-5.0	5.6	-3.1	-3.0	.	.	.
